# Compound activity deposited in PubChem by National Center for Advancing Translational Sciences (NCATS).
# Anthrax LT inh – inhibitors of anthrax lethal toxin internalization; Cells, anthrax lethal toxin internalization, FRET ratio (460/530); Potency, µM (series often up to 40 µM), for inactives: top-dose activity change, negative = inhibition, most hits filed as inhibitors; 0.67% of 70,000 active; active = well fitted falling ratio curve with the 530 nm signal flat; inconclusive = other ratio curves, or a change in one channel alone; inactive = flat curves in the ratio and both channels; the % refers to the ratio; note: % is set by controls: 0 for no effect and ±100 for the full control effect; nearly all actives have a fitted effect of over 50% in size; tested in ME-180 cells; beta-lactamase reporter
# Prx2 Sm inh – blocks S. mansoni peroxiredoxin 2 enzymatic activity; S. mansoni Prx2 activity coupled to TGR/GSH (TGR is thioredoxin glutathione reductase), NADPH fluorescence loss, qHTS; some inactives read as strong as hits; Potency, µM; 0.07% of 65,000 active; AID 448; active means full or partial inhibition curve with a strong effect at the top dose; inconclusive means weaker partial or single-point curve; inactive means no accepted curve; note: series up to 57 µM; many of its hits are not listed in these tables
#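 Prx2 inhibition was measured as reduced NADPH consumption when electrons flowed from NADPH through TGR and glutathione to Prx2 and H2O2. Plates were read kinetically over 8 min; enzyme reagents were held at 4 deg C during dispensing.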
# * = called active by the depositor; ? = inconclusive; / = no result given; [ ] = another dose, or the depositor's remark. Potency is the fitted concentration of half-maximal effect. These rows are one share of the data; rates above refer to the full screens.
SMILES	Anthrax LT inh	Prx2 Sm inh
COc1ccc(N(CC(=O)NCCSC(C)(C)C)S(C)(=O)=O)c(OC)c1	-7%	/
COc1cc(NS(C)(=O)=O)c(OC)cc1NC(=O)c1ccccc1	4%	>57
O=C(NCCN1CCOCC1)NC1(C(F)(F)F)Oc2ccccc2O1	7%	>57
Cc1nc(NC2CCCCC2)c2nc(-c3ccccc3)n(C(C)CN(C)C)c2n1 (stereo not given)	?	/
COC(=O)CC1C(=O)NCCN1C(=O)c1ccccc1 (stereo not given)	10%	>57
CCCCn1c(SCC(=O)NCC2CCCO2)nc2ccc(N3CCOCC3)cc2c1=O (stereo not given)	-12%	/
COc1ccc(CNc2ccnc(-c3cccc(NS(C)(=O)=O)c3)n2)c(OC)c1	-6%	>57
COc1ccc(N2CCN(Cc3nc4ccccc4c(=O)[nH]3)CC2)cc1	-11%	>57
O=c1[nH]c(=O)n(Cc2ccc(F)cc2)c(O)c1C=NCc1cccnc1	2%	>57
CO[C@@H]1COC(=O)[C@H](C)NC(=O)[C@@H](C)COC(=O)CCC[C@H]1C	-8%[8 µM]	/
Cc1cccc(C)c1OCC(=O)Nn1c(C)nc2ccccc2c1=O	-24%	>57
Cc1nn(Cc2ccccc2)c(C)c1NC(=O)c1cc(-c2ccc3c(c2)OCO3)on1	7%	>57
Cn1cccc1C(=O)N1CCC2(CC1)CN(C(c1ccccc1)c1ccccc1)C2	?	>57
C=C(C)Cn1c(SCC)nc2ccccc2c1=O	8%	>57
Cc1cc(C)n2nc(SC3CCCCN(C(=O)c4ccc(F)cc4)C3=O)nc2n1 (stereo not given)	-6%	>57
CC(C)CCNC(=O)C1CCCN(S(=O)(=O)c2ccc(F)cc2)C1 (stereo not given)	-12%	>57
COc1ccc(Cl)cc1S(=O)(=O)N1CCN(c2ccc(F)cc2)CC1	?	>57
O=C(c1cccnc1)N1CCN(S(=O)(=O)c2ccc(S(=O)(=O)N3CCCC3)cc2)CC1	-2%	>57
O=C1CC(=O)N(Cc2ccco2)C(=O)N1	-1%	>57
COc1ccccc1/C=c1\sc2nc(-c3cccs3)nn2c1=O	?	>57
COC(=O)[C@@]1(Cc2ccc(F)cc2)[C@H]2c3cc(C(=O)N4CCCC4)n(CC4CC4)c3C[C@H]2CN1C(=O)c1ccccc1	?	>57
CCNc1ncc2nc(-c3ccc(F)cc3)c(=O)n(C)c2n1	?	>57
O=C(NCc1cccs1)C1CC(=O)N(c2ccc(F)cc2)C1 (stereo not given)	-18%	>57
CN(C)c1ncc2nc(-c3cccs3)c(=O)n(CCc3ccccc3)c2n1	?	>57
COc1ccc(N2CCN(C(=O)c3ccc(OCC4CCCO4)cc3)CC2)cc1 (stereo not given)	?	>57
COc1ccccc1OCC(O)Cn1c(=N)n(Cc2ccccc2)c2ccccc21 (stereo not given)	2%	>57
Cc1[nH]nc2c1C(c1cccnc1)N(c1ccc(Br)cc1)C2=O (stereo not given)	-12%	>57
Nc1nc(SCc2ccccc2)[nH]c(=O)c1-c1ccccc1	-9%	>57
O=c1cc(N2CCN(c3ccccc3F)CC2)[nH]c(=O)n1-c1ccc(Br)cc1	-12%	>57
CC1CCN(S(=O)(=O)c2ccc3[nH]c(=O)c(=O)[nH]c3c2)CC1	-1%	>57

# Part of the list above, with two lines to a compound.
# Fields: Anthrax LT inh | Prx2 Sm inh
O=C(c1cccnc1)N1CCN(S(=O)(=O)c2ccc(S(=O)(=O)N3CCCC3)cc2)CC1
  -2% | >57
O=C1CC(=O)N(Cc2ccco2)C(=O)N1
  -1% | >57
COc1ccccc1/C=c1\sc2nc(-c3cccs3)nn2c1=O
  ? | >57
COC(=O)[C@@]1(Cc2ccc(F)cc2)[C@H]2c3cc(C(=O)N4CCCC4)n(CC4CC4)c3C[C@H]2CN1C(=O)c1ccccc1
  ? | >57
CCNc1ncc2nc(-c3ccc(F)cc3)c(=O)n(C)c2n1
  ? | >57
O=C(NCc1cccs1)C1CC(=O)N(c2ccc(F)cc2)C1 (stereo not given)
  -18% | >57

# Following part.
SMILES	Anthrax LT inh	Prx2 Sm inh
CC1CC(C)CN(c2nc3c(c(=O)n(C)c(=O)n3C)n2C)C1 (stereo not given)	11%	>57
O=S(=O)(c1ccccc1)N1CCN(Cc2cccc(Cl)c2)CC1	-4%	>57
O=C(CSc1nnc(-c2ccccn2)n1Cc1ccccc1)Nc1ccc2c(c1)OCO2	-5%	>57
O=C(Nc1ccccc1C(=O)N1CCN(c2ccccc2)CC1)c1ccco1	-10%	>57
O=C(CN(c1ccc2c(c1)OCCO2)S(=O)(=O)c1ccccc1)Nc1ccc2c(c1)OCO2	?	>57
CCn1c(SCC(=O)Nc2ccc3c(c2)OCO3)nc2c1c(=O)n(C)c(=O)n2C	-5%	>57
Cc1ccc(S(=O)(=O)N(CC(=O)NCc2ccco2)Cc2ccccc2F)cc1	4%	>57
NS(=O)(=O)c1ccc(CCNC(=O)NC2(C(F)(F)F)Oc3ccccc3O2)cc1	-13%	>57
CCN1C(=O)/C(=C2/SC(C)=C(C)N2CC)SC1=S	-2%	>57
CCN(CC(=O)NC(C)C)C(=O)CCNC(=O)c1ccc(Cl)cc1	-5%	>57
O=C(Nc1ccccc1O)c1ccc(Cl)cc1	-1%	>57
Cc1nc2sc(C(c3cccs3)N3CCN(c4cccc(Cl)c4)CC3)c(O)n2n1 (stereo not given)	24%	>57
COc1ccc(S(=O)(=O)N(CCCN2CCCC2=O)Cc2cc3c(C)ccc(C)c3[nH]c2=O)cc1	-4%	?
CCOC(=O)Cc1csc(NC(=O)Nc2ccccc2)n1	-11%	/
CC(=O)N1CCN(CC(O)COc2ccc(OCc3ccccc3)cc2)CC1 (stereo not given)	/	>57
COCCCn1c2nc3ccccc3nc2c2c(=O)n(Cc3ccc(Cl)cc3)cnc21	/	>57
Cc1c(NC(=O)CSc2nc(-c3ccco3)cc(C(F)(F)F)n2)c(=O)n(-c2ccccc2)n1C	-7%	>57
Cc1ccc(-c2nn(-c3ccccc3)cc2CN(Cc2ccccc2)C(=O)CCC(=O)O)o1	-9%	>57
CCN(CC)S(=O)(=O)c1ccc(NC(=O)C(OC)c2ccccc2)cc1 (stereo not given)	11%	>57
Cc1cccc(NC(=O)c2ccccc2NC(=O)C(C)(C)C)n1	-9%	>57
COc1ccc(-n2nc3c(c2NC(=O)c2cc4ccccc4oc2=O)CS(=O)(=O)C3)cc1	/	>57
NS(=O)(=O)c1ccc(NC(=O)Nc2cccc3ccccc23)cc1	4%[8 µM]	>57
O=C(Cn1c(=O)n(CC2CCCO2)c(=O)c2ccccc21)c1ccccc1 (stereo not given)	21%	>57
CCn1c(SCc2nc(CC(=O)Nc3ccccc3OC)no2)nnc1-c1cccs1	2%	>57
CCOC(=O)C1=C(c2ccccc2)N(C)C(=O)NC1c1ccc(O)c(OC)c1 (stereo not given)	5%	>57
COC(=O)c1ccc(CSc2nnc(-c3ccncc3)o2)o1	5%	>57
Cc1c(N2CCCC2)cc2c(c1NC(=O)c1ccccc1Cl)C(C)(C)CC2(C)C	?	>57
Cc1ccc2nc(C3CCN(CC(=O)Nc4ccc5c(c4)OCCO5)CC3)[nH]c2c1	23%	>57
CCCS(=O)(=O)N1CCC(C(=O)NCCCOCC)CC1	9%	>57
COc1ccccc1C(=O)N1CCN=C1c1ccccc1	0%	>57

# Next part.
compound | Anthrax LT inh | Prx2 Sm inh
Cc1nc(SCC(=O)c2c[nH]c3ccccc23)n[nH]1 | 9% | >57
C=CP(=O)(O)c1ccccc1 | -7% | >57
COc1cc(C(=S)N2CCC(C(N)=O)CC2)ccc1O | -11% | >57
CCN1CCN(c2ncnc3ccc(Br)cc23)CC1 | -15% | >57
CCOC(=O)C1=C(C)NC(C)=C(C(=O)OCC)C1c1ccc(O)cc1 | 2% | /
CCc1nnc(NC(=O)CSc2nnc(-c3c[nH]c4ccccc34)n2CC)s1 | 4% | >57
CC[C@@]12CCCN3CC[C@@]4(c5ccc(OC)c(O)c5N(C(C)=O)[C@H]4CC1)[C@H]32 | 7% | >57
O=C(COC(=O)C1CCCN1C(=O)c1cccs1)c1ccccc1 (stereo not given) | ? | >57
CCOc1ccc(-n2nnc3c(=O)n(CC(=O)c4ccccc4)cnc32)cc1 | -5% | >57
FC(F)(F)c1cccc(N2Cc3ccccc3C2)c1 | -6% | >57
Cc1nc2ccccc2c(=O)n1/N=C/c1ccncc1 | -1% | /
Cc1ccc(C(=O)Nc2ccccc2N2CCN(C(=O)C(C)C)CC2)cc1 | 1% | >57
COc1ccccc1OCC(=O)N(Cc1nc(-c2ccc(Cl)cc2)no1)C(C)C | ? | >57
CC(C)NS(=O)(=O)c1ccc(OCC(=O)Nc2ccc3c(c2)OCCO3)cc1 | 1% | >57
O=C(O)CN1C(=O)CSc2ccccc21 | 4% | >57
CCOc1nc(-c2ccc(C)cc2)ccc1-c1noc(COC)n1 | -7% | >57
COC(=O)C(Cc1cnc[nH]1)NC(=O)C1CCC(=O)N1 (stereo not given) | 12% | >57
COc1cc2c(cc1OC)CN(C(=O)CSc1nc(N)c(C#N)cc1C#N)CC2 | -19% | >57
CC1=[N+]([O-])C(N2CCOCC2)C(O)(c2ccccc2)C1 (stereo not given) | -16% | >57
CCc1c(C)nc(N)n2c(SCC(=O)N3CCN(c4ccccc4OC)CC3)nnc12 | 6% | >57
COc1ccc(-c2noc(CCCC(=O)NCCc3ccccc3)n2)cc1OC | -1% | >57
C=C(C)Cn1c(CCNC(=O)CC)nc2ccccc21 | -5% | >57
Cc1onc(-c2ccccc2)c1C(=O)N1CCN(C/C=C/c2ccccc2)CC1 | -20% | >57
O=S(=O)(c1ccc(OCC(O)CN2CCc3ccccc3C2)cc1)N1CCOCC1 (stereo not given) | 11% | >57
CCOC(=O)c1oc2ccccc2c1NC(=O)c1cccc(OC)c1OC | -29% | >57

# Quoted from the listing:
# For Prx2 Sm inh, CC(=O)N1CCN(CC(O)COc2ccc(OCc3ccccc3)cc2)CC1 (stereo not given) reads >57
# For Prx2 Sm inh, Cc1c(N2CCCC2)cc2c(c1NC(=O)c1ccccc1Cl)C(C)(C)CC2(C)C reads >57
# For Anthrax LT inh, COc1ccc(CNc2ccnc(-c3cccc(NS(C)(=O)=O)c3)n2)c(OC)c1 reads -6%
# For Prx2 Sm inh, Cc1cccc(C)c1OCC(=O)Nn1c(C)nc2ccccc2c1=O reads >57
# For Prx2 Sm inh, O=c1cc(N2CCN(c3ccccc3F)CC2)[nH]c(=O)n1-c1ccc(Br)cc1 reads >57

# The list continues:
compound | Anthrax LT inh | Prx2 Sm inh
Cc1ccc(-c2cnc(N)n2C)cc1C | 6% | >57
CCc1ccc2[nH]cc(C(=O)OCCOC)c(=O)c2c1 | 5% | >57
CC(C)Cn1c(N)c(S(=O)(=O)c2cccs2)c2nc3ccccc3nc21 | ? | >57
Cc1ccc(C)c(C(C)NC(=O)C2C3CCC(O3)C2C(=O)O)c1 (stereo not given) | 6% | >57
NC(=O)c1ccc(N2CCCCC2)c(N2C(=O)CCC2=O)c1 | -7% | /
CCOc1ccc(NCC(=O)Nc2ccc(C)cc2C)cc1 | ? | >57
Cc1sc(NC(=O)CSc2nnc(COc3ccccc3)n2C)c(C#N)c1C | -7% | >57
COc1cc(-c2nc3cnccn3c2Nc2ccccc2)ccc1O | -34% | >57
OC(c1ccc(Cl)cc1)c1nnc(-c2ccccc2)o1 (stereo not given) | -2% | >57
Oc1ccc(Br)cc1CN1CCCCCCC1 | -27% | /
Cc1ccc2cc(C#N)c(NCCCNC(=O)C3CCCO3)nc2c1 (stereo not given) | 1% | >57
C1CCc2c(nnc3c2-c2nonc2CC3)C1 | -7% | >57
CS(=O)(=O)N1CCC2(CC1)CN(C(=O)Nc1cccc(F)c1)C2 | -9% | >57
Cc1ccnc(NS(=O)(=O)c2ccc(NC(=O)C3CCCO3)cc2)n1 (stereo not given) | 0% | >57
CCCn1c2c(c(O)c(C(=O)Nc3nc(C)cs3)c1=O)CCCC2 | / | >57
CC(=O)Nc1cccc(N)c1 | -4% | /
CCCCCc1cc(O)c2c(C)cc(=O)oc2c1 | ? | >57
COc1ccc(-c2nnnn2C)cc1S(=O)(=O)NCCc1ccccc1 | -2% | >57
CCCOc1nc(N)c(C#N)c(-c2ccccc2F)c1C#N | 7.9µM* | >57
Cc1[nH]c2ccccc2c1CCO | ? | >57
CCOc1ccc(NC(=O)N(CCN(C)C)C(C)c2ccncc2)cc1 (stereo not given) | -7% | >57
COc1ccccc1OCCC(=O)OCC(=O)NC(=O)NC(C)(C)C | -15% | >57
CCCC(C)C(=O)Nc1nnc(C)s1 (stereo not given) | -13% | >57
CCN(CC)CCNC(=O)C1CCN(S(=O)(=O)N2CCCCC2)CC1 | -1% | >57
COc1ccc(-c2csc(NCc3ccco3)n2)cc1 | -17% | >57

# As a short view, 2 of the compounds above:
compound | Anthrax LT inh | Prx2 Sm inh
CCN(CC)CCNC(=O)C1CCN(S(=O)(=O)N2CCCCC2)CC1 | -1% | >57
COc1ccc(-c2csc(NCc3ccco3)n2)cc1 | -17% | >57

# Additional compounds follow.
compound | Anthrax LT inh | Prx2 Sm inh
CCCCC(=O)N(CCOC)c1nnc(-c2ccc(OC)cc2)s1 | -1% | >57
CCCCCN(C(=O)NC(=O)Nc1nncs1)S(C)(=O)=O | 2% | >57
O=C(c1ccc2c(c1)OCO2)N1CCN=C1SCc1ccccc1 | -10% | >57
CCOC(=O)CSC1=C(C#N)C(c2ccccc2OCC)C(C(=O)OCC)C(=O)N1 (stereo not given) | ? | >57
O=S(=O)(NC1c2cccc3cccc(c23)C1N1CCN(CCO)CC1)c1ccccc1 (stereo not given) | -23% | >57
